Source: PubChem
HCMV NEC inh: inhibitors of HCMV UL50-UL53 interaction, biochemical, HTRF | HCMV UL50-UL53 nuclear egress complex (human cytomegalovirus) | normalized percent inhibition | inhibition, % (concentration not given with the values) | actives 0.15% (n = 190,000) | AID 1918969, 2023;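 active means both replicates at 50% or more, plus weaker picks with an unusually low signal ratio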;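 further: stock transfer was 100 nL into about 20 µL; 0% = negative control wells and 100% = wells with untagged competitor protein; inactives centre near -12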
An asterisk follows results filed as active; & = joins results of further samples. Some of the compounds tested (hit frequency here may not be typical).

Structure	HCMV NEC inh
CCOc1ccc(S(=O)(=O)N2CCc3ccccc3C2)cc1	-2&-5
Cc1cc(O)cc2occ(-c3cnn(-c4ccccc4)c3)c(=O)c12	-18
CSc1nnc(NC(=O)c2ccc(F)cc2)s1	-1
OC1(CNc2ncnc3nc[nH]c23)C2CC3CC(C2)CC1C3 (stereo not drawn)	-3&-3
O=C(Cc1ccccc1)NCc1nc2ccccc2[nH]1	6
CC(C)[C@H](O)C(=O)O	-22&-22
CCCCN(C)S(=O)(=O)c1ccc(C(=O)Nc2sccc2C#N)cc1	-11
Cc1cccc2nc(CSc3ccccc3N)cn12	-5
CCCCc1ncc(-c2nc3ccc(C)cc3c(C(=O)N(C)CC)c2C)cn1	-19
Cc1ccc(-c2cnnn2-c2ccc(C(=O)COC(=O)c3ccccc3F)cc2)cc1	-3
O=C(Cc1ccccc1)Nc1nc(-c2nc3ccccc3s2)cs1	-4
CCCCC(C)(O)C/C=C/[C@H]1[C@H](O)CC(=O)[C@H]1CCCCCCC(=O)OC (stereo partly drawn)	-11&-11
COc1ccc(CCNC(=O)C2c3ccccc3C(=O)N2CCC(C)C)cc1OC (stereo not drawn)	-4
CC(C)C(=O)Nc1nc(-c2cc3ccccc3oc2=O)cs1	-15
O=C(Nc1nnc(SCC(=O)N2CCCc3ccccc32)s1)c1c(F)cccc1Cl	-19
CC(CNC(=O)c1cccnc1)NC(=O)c1cccnc1 (stereo not drawn)	-3
CCCC[n+]1c(C)sc2ccccc21	-21
CCOC(=O)c1[nH]c(C)c(C(=O)NC)c1C	-13
Cc1cc2cc(CNC(=O)Cc3ccccc3)ccc2[nH]1	-6
COc1ccc2c(=O)c(Oc3ccccc3)c(C)oc2c1C	-14
CCNC(=O)c1cccnc1N1CCN(c2ccc(C)cc2C)CC1	42&42
Cc1ccc(S(=O)(=O)c2cnc3ccccc3n2)cc1	4
CCCCCCCC/C=C\CCCCCCCC(N)=O	-2&-13&-13&-16
CC(=O)NCc1nc2ccccc2n1CC(C)C	-12
Cc1ccc(COc2coc(CO)cc2=O)cc1	-3
O=C(c1coc2ccccc2c1=O)N1CCN(c2ccccc2)CC1	-7
CCOC(=O)c1cccc(C(=O)Nc2ccc(Cl)cn2)n1	-14
CCCCC[C@H](O)/C=C/[C@H]1CC[C@H](O)[C@@H]1CCCCCCC(=O)O	-16&-16
CC(=O)Nc1nc(CC(=O)c2ccccc2)cs1	-14
N#CC(C#N)=C(/C=C/c1ccccc1)C1CC1	-3
Cc1ccc(S(=O)(=O)OCC(=O)Nc2ccc(C(=O)O)c(O)c2)cc1	-12
CC(C)NC(=O)COc1ccc(Br)cc1	-11
CCCCC[C@H](O)/C=C/[C@H]1C2CC(CO2)[C@@H]1C/C=C/CCCC(=O)O (stereo partly drawn)	-22&-22
Cc1cc(O)c(CN2CCN(C)CC2)c2oc(=O)c3ccccc3c12	-26
COc1ccccc1NC(=O)CC(NCc1ccccc1)C(=O)O (stereo not drawn)	-4
COc1ccc(C2=N/C(=C/c3cccnc3)C(=O)O2)cc1OC	-7
Cc1ccc(C2SCCN2S(C)(=O)=O)cc1 (stereo not drawn)	-11
CCN(CC)C(=O)CCCN1C(=O)/C(=C/c2ccc(OC)cc2)SC1=S	-18
CC(C)OC(=O)CCCC=CCC1C(O)CC(O)C1CCC(O)CCc1ccccc1 (stereo not drawn)	-94
CCCS(=O)(=O)NCc1ccc2c(c1)cc(C)n2C	-5
Nc1ncnc2c1nc(Br)n2[C@@H]1O[C@@H]2COP(=O)(O)O[C@H]2[C@H]1O	-5
CC1(O)CCC(C(C)(C)O)CC1 (stereo not drawn)	-54
Cc1nnc(NC(=O)NCC(c2ccccc2)c2ccccc2)s1	9&9
COc1cccc(COC2CN(CCc3ccccc3)C(=O)CN(C(=O)CN3CCOC3=O)C2)c1 (stereo not drawn)	-8
CCCc1cc(=O)oc2cc(OC(C)=O)ccc12	-2
O=c1[nH]c2ccc(Cl)cc2c(-c2ccccc2)c1NS(=O)(=O)c1ccccc1	-4
CSc1nnc(NC(=O)c2ccc(Cl)cc2Cl)s1	-16
CCOC(=O)C(C)(C)Sc1nc2c(cnn2-c2ccc(C)c(C)c2)c(=O)[nH]1	3
Cn1nc(NC(=O)Cn2cc(-c3nccc4occc34)cn2)c2ccccc21	37&37
Cc1ccc(S(=O)(=O)NCc2cccnc2)s1	-6
O=C(CCc1cccc(Cl)c1)c1cccs1	-2
Cn1cc(SCC(=O)Nc2nccs2)c2ccccc21	-14
CSc1nnc(-c2cc(OCC(F)(F)F)nc(OCC(F)(F)F)c2)n1Cc1ccco1	2
c1ccc(COCCCc2cnc[nH]2)cc1	6
O=C(O)CCC/C=C\CC1C2CCC(O2)C1CNNC(=O)Nc1ccccc1 (stereo not drawn)	-7&-7&-9
O=C1c2ccccc2-[n+]2ccc3c([nH]c4ccccc43)c21	61*
NC(=O)c1ncn(C2OC(CO)C(O)C2O)c1N (stereo not drawn)	-2
COC(=O)c1cc(Br)ccc1OC(=O)c1cccnc1	-22
C[C@H]([C@H](C)N1CC(=O)NC(=O)C1)N1CC(=O)NC(=O)C1	-11
CNC(=O)c1ccc2c(C(=Nc3cccc(CN(C)C)c3)c3ccccc3)c(O)[nH]c2c1	-56

17 structures from above, sorted by count of non-hydrogen atoms, rising.
Structure	HCMV NEC inh
CC1(O)CCC(C(C)(C)O)CC1 (stereo not drawn)	-54
CC(C)NC(=O)COc1ccc(Br)cc1	-11
c1ccc(COCCCc2cnc[nH]2)cc1	6
Cc1ccc(S(=O)(=O)NCc2cccnc2)s1	-6
CSc1nnc(NC(=O)c2ccc(Cl)cc2Cl)s1	-16
CCCS(=O)(=O)NCc1ccc2c(c1)cc(C)n2C	-5
COC(=O)c1cc(Br)ccc1OC(=O)c1cccnc1	-22
O=C1c2ccccc2-[n+]2ccc3c([nH]c4ccccc43)c21	61*
Nc1ncnc2c1nc(Br)n2[C@@H]1O[C@@H]2COP(=O)(O)O[C@H]2[C@H]1O	-5
COc1ccccc1NC(=O)CC(NCc1ccccc1)C(=O)O (stereo not drawn)	-4
Cc1ccc(S(=O)(=O)OCC(=O)Nc2ccc(C(=O)O)c(O)c2)cc1	-12
CCN(CC)C(=O)CCCN1C(=O)/C(=C/c2ccc(OC)cc2)SC1=S	-18
CCOC(=O)C(C)(C)Sc1nc2c(cnn2-c2ccc(C)c(C)c2)c(=O)[nH]1	3
O=C(O)CCC/C=C\CC1C2CCC(O2)C1CNNC(=O)Nc1ccccc1 (stereo not drawn)	-7&-7&-9
CC(C)OC(=O)CCCC=CCC1C(O)CC(O)C1CCC(O)CCc1ccccc1 (stereo not drawn)	-94
CNC(=O)c1ccc2c(C(=Nc3cccc(CN(C)C)c3)c3ccccc3)c(O)[nH]c2c1	-56
COc1cccc(COC2CN(CCc3ccccc3)C(=O)CN(C(=O)CN3CCOC3=O)C2)c1 (stereo not drawn)	-8

Molecules shown so far that have a cyano group:
Structure	HCMV NEC inh
CCCCN(C)S(=O)(=O)c1ccc(C(=O)Nc2sccc2C#N)cc1	-11
N#CC(C#N)=C(/C=C/c1ccccc1)C1CC1	-3

Remaining list, next part
Structure	HCMV NEC inh
COc1cccc2ccc(-c3coc4ccccc4c3=O)nc12	-41&-41
CCOc1ccc(Cc2nccc3cc(OCC)c(OCC)cc23)cc1OCC	-1
Cc1nc2nc(C(F)(F)F)cc(=O)n2[nH]1	-4
COc1nc(-c2ccccc2)nc(Cl)c1NC(=O)c1cccs1	-3
CC(c1ccccc1)n1c(CO)nc2ccccc21 (stereo not drawn)	-7
Cc1cc2ccccc2n1CCNC(=O)c1ccc(Br)o1	-4
CC1CC(C)CN(c2ncnc3c2cnn3-c2ccccc2)C1 (stereo not drawn)	-10
N[C@@H](C(=O)O)c1ccc(C(=O)O)c(C(=O)O)c1	-1
Cc1cn(S(=O)(=O)c2ccccc2)cn1	-21
Cc1ccc(SC(C)C(=O)c2ccc(C)c(Cl)c2)cc1 (stereo not drawn)	-8
CC(C)OC(=O)NC1(C(F)(F)F)Oc2ccccc2O1	-3
Cc1nc(Nc2cnc(C=Cc3cc(C(=O)Nc4cccc(C(F)(F)F)c4)ccc3C)cn2)cc(N2CCNCC2)n1	-9
CC(C)CCOc1ccc(NC(=S)Nc2ccc(OCCC(C)C)cc2)cc1	-18&-18
O=C(C=Cc1ccc(O)c(O)c1)NCCc1ccc(O)cc1	-56
NC(=O)OCC(O)COc1ccc(Cl)cc1 (stereo not drawn)	0
O=C(Oc1ccccc1)N1CCN2C(=O)[C@@H]3C[C@@H](O)CN3C(=O)[C@H]2C1	-3
NC(=O)c1ccsc1NC(=O)/C=C/c1ccccc1	-32
COc1ccccc1NC(=O)CN1C(=O)CSC(C)C1=O (stereo not drawn)	-7
CC(C)=CCC/C(C)=C/CC/C(C)=C/CC[C@]1(C)CCc2cc(O)c(C)c(C)c2O1	-31&-31
O=C(NC1CCCCC1)C12CC3CC(CC(Cl)(C3)C1)C2	11&-19
CCOC(=O)CC(c1ccc(N)cc1)n1c(C)ccc1C (stereo not drawn)	-9
CN(CC(O)Cn1c2ccccc2c2ccccc21)S(C)(=O)=O (stereo not drawn)	14&7
CCN1CCN(C(c2cccs2)C(C)NC(=O)c2c(F)cccc2F)CC1 (stereo not drawn)	2
Cc1c(C#N)c(Sc2n[nH]c(=O)n2C2CCCCC2)nc2ccccc12	-4
CCn1ncc(NC(=O)Cn2ccc(-c3ncnn3C)n2)n1	-22&-22
Cc1nc(C(=O)O)nn1-c1cc(Cl)cc(Cl)c1	-19
Cc1ccccc1-n1nc2c(c1NC(=O)CC(C)C)CS(=O)C2 (stereo not drawn)	-4
COc1cccc2ncn(Cc3nc4ccccc4o3)c(=O)c12	41&41
N#Cc1c(NC(=O)CSc2nnc3ccccn23)sc2c1CCCC2	-29
Cc1cc(C(=O)NOCCO)c(Nc2ccc(I)cc2F)n(C)c1=O	10

Other entries:
molecule	HCMV NEC inh
CCN(C(=O)c1cc(-c2cnc(C(C)C)nc2)nc2cc(F)ccc12)C(C)C	-7
CC/C=C\C/C=C\C/C=C\C/C=C\CCCCC(=O)OCC	5&5
CCC1CCCCN1Cc1c(O)ccc2cc(-c3nc(C)cs3)c(=O)oc12 (stereo not drawn)	-56
NC(=O)c1ccccc1NC(=O)CSc1ccccn1	0
CCOC(=O)c1ccsc1NC(=O)c1ccco1	-3&1
C=C1C2(C(=O)O)CCC(C2)C1(C)C (stereo not drawn)	-17
CCCCC[C@H](O)/C=C/[C@H]1C2COC(C2)[C@@H]1C/C=C\CCCC(=O)O (stereo partly drawn)	-12&-12
O[C@H](CNC[C@@H](O)[C@H]1CCc2cc(F)ccc2O1)[C@@H]1CCc2cc(F)ccc2O1	-1
O=C1O/C(=C\c2ccc(Cl)cc2Cl)c2ccccc21	-15
COc1ccc(NC(=O)CSc2nnc3n2CCCCC3)cc1	-10
Clc1ccc(CN2CCN(c3ccccc3)CC2)cn1	6
Cc1nc2ccc(NC(=O)c3ccc(N4C(=O)CCC4=O)cc3)cc2s1	0
CCN(CC)C(=O)c1cccnc1	-64
Cc1ccc(C)n1CCc1c[nH]c2ccccc12	-8
N#CC1=C(N=Cc2c(O)ccc3ccccc23)CCC1	-2
CC(C)CNC(=O)[C@H]1CNC[C@@H](CN2CCOCC2)C1	-12
O=C(CSc1cn(Cc2ccccc2)c2ccccc12)N1CCOCC1	2
O=C(c1nn(Cc2ccncc2)c2c1CN(Cc1ccsc1)CC2)N1CCCC1	-7
O=c1nc(-c2cccs2)cc(C(F)(F)F)[nH]1	-10
COc1ccc(OCC(O)CN2CCc3ccccc3C2)cc1 (stereo not drawn)	-7
CC(=O)N/C(=C\c1ccc2ccccc2c1)C(=O)O	-15
O=C(c1ccccc1)c1cc(Br)ccc1N=Cc1ccccc1O	-29
C[C@@H]1C(=O)O[C@H]2CC34[C@H]5C[C@@H](C(C)(C)C)[C@]36[C@@H](OC(=O)[C@@H]6O)O[C@@]4(C(=O)O5)[C@]21O (stereo partly drawn)	-16
CCC(=O)Nc1nc(-c2ccc3c(c2)OCO3)cs1	-6
CC1=C(C)CS(=O)N(C(=O)c2ccccc2)C1 (stereo not drawn)	-22
Cc1ccc(NC(=O)CSc2nnc3n2CCCCC3)cc1	-3
CCc1cc2c(c(CC)n1)CCC(=O)N2Cc1ccc(-c2ccccc2-c2nn[nH]n2)cc1	-4
CC(=O)Nc1sc2c(c1C(c1cccs1)N1CCOCC1)CCCC2 (stereo not drawn)	4&-5
CC(C)n1cc(-c2cc(C(=O)N3CCC(C)(C)C3)c3ccc(F)cc3n2)cn1	-24
Nc1c(C(=O)Nc2ccc(Cl)cc2)oc2ccccc12	5
CC[n+]1c(C)cc(C)n1-c1ccccc1	2
CCCCCCCCCCCCCCCCC/C=C/C(=O)O	-22&-22
CC(C)/C(N)=N/C(=S)Nc1ccccc1	-9
CC1CC(C)CN(C(=O)c2ccc(S(=O)(=O)N3CC(C)CC(C)C3)cc2)C1 (stereo not drawn)	-10
CC(=O)Oc1ccc2c(=O)c(Oc3ccc(Cl)cc3)coc2c1	-3&10
Cc1cccc2c(C(=O)N(C)C(C)C)cc(-c3cnc(-c4cccnc4)nc3)nc12	-24
COc1cc(-c2nc3sc4c(c3c(=O)o2)CCC4)cc(OC)c1OC	-5
Cc1cc2cc(CNC(=O)CCCc3ccccc3)ccc2n1C	-6
COc1cc(Nc2ncc(F)c(Nc3ccc4c(n3)NC(=O)C(C)(C)O4)n2)cc(OC)c1OC	8&-9&-14&-15&-15&-11
Cc1ccccc1NC(=O)C(C)n1c(C(F)(F)F)nc2ccccc21 (stereo not drawn)	-9
O=C(Nc1sc2c(c1C(=O)O)CCCC2)c1ccccc1	-12
COc1ccc(S(=O)(=O)NC2CCCCCC2)cc1C	0
CC(=O)N1CCN(C)CC1	1
CCC(=O)Nc1nnc(-c2ccc(Cl)cc2)s1	-9
Cc1ccc(CSc2nnc3c(n2)[nH]c2ccccc23)cc1	2
Cc1ccc(CNC(=O)Cc2noc3ccccc23)cc1	5
CCc1nc(Cn2c3c(cc(-c4ccccc4C)c2=O)CN(Cc2ccc(O)c(Cl)c2)CC3)no1	-4
COc1ccccc1-c1cnn(CC(=O)Nc2cc(C)nn2C)c1	-16&-16
CCCSC1=C(C#N)C(c2cc(Br)c(O)c(OC)c2)CC(=O)N1 (stereo not drawn)	-8
